# Assay outcomes (PubChem BioAssay)
# Insulin prom inh: inhibitors of insulin promoter-driven GFP, primary screen, imaging, TRM-6 cells (human fetal islet line), eGFP reporter, cell count; actives 0.9% (n = 130,000); reporter expression induced with tamoxifen; inhibition, % at 2 µM; AID 1273, 2008;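 active = inhibition above the mean plus 3 SD, with well images judged a real hit on visual review, cut at about 60% in these data, passing the limit was not always enough; inconclusive = inhibition over the cutoff but images rejected on review; inactive = inhibition not above the cutoff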
# GALR2 agonist: GALR2 receptor agonists, primary screen, cell-based | GALR2-expressing cells, agonist activation read-out | activation, %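 (tested at 5 µM)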 | Galanin receptor type 2 (Homo sapiens), O43603 | actives 0.48% (n = 140,000);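 active = above mean plus 3 SD of all compounds, about 5% in these data, not always enough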;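 also: 0% = vehicle buffer wells and 100% = reference agonist at full effect; tested in CHO reporter cells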
# HSV replic up: enhancers of HSV replication in host cells, fold increase, host cell viability | HSV replication augmentation in cells | maximum fold increase | actives 0.005% (n = 220,000) | AID 1956, 2009;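 active = peak rise of 1.5-fold or more in the series; inconclusive = self-fluorescent or not available for retest; tested in PC3 cells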;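 also: first round at 10 µM; read as green reporter fluorescence; hits show the peak of a series up to 25 µM; 1 = signal of infected wells without compound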
# PKD1 inh: inhibitors of human PKD1 kinase, biochemical, fluorescence polarization; AID 797, 2007; inhibition, %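 (about 10 µM by stock and volumes)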; Serine/threonine-protein kinase D1 (Homo sapiens), Q15139; PKD1 kinase fluorescence polarization assay; actives 0.056% (n = 200,000);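 active = inhibition of 50% or more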;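 also: controls were vehicle for no effect and a reference inhibitor for full effect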
# Target sequence (Q15139 whole entry, looked up): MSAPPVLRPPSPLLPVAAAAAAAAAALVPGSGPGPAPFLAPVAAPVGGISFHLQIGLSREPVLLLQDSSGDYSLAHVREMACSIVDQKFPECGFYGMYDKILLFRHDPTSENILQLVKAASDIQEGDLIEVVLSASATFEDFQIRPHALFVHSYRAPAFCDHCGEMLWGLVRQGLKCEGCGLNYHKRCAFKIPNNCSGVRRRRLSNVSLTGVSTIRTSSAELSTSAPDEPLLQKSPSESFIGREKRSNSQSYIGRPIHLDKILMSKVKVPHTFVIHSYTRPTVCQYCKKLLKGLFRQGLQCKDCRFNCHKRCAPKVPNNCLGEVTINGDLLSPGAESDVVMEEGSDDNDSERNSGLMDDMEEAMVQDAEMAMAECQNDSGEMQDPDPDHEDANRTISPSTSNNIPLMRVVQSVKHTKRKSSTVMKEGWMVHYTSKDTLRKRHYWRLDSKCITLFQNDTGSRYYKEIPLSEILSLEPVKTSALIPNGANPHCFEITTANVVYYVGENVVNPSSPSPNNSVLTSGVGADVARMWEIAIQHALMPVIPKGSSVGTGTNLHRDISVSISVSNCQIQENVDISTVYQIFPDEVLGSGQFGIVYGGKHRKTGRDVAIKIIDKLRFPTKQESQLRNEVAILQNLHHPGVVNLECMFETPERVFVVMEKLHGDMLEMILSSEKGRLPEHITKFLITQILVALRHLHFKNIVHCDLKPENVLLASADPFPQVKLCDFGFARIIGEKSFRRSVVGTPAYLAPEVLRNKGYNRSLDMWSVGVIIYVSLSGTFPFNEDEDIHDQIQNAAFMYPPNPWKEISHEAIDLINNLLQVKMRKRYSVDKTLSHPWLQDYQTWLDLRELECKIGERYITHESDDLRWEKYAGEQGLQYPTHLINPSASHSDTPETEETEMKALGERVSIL
# RGS16-Gao: modulators of RGS16 binding to Galphao, primary screen, biochemical, human proteins, multiplexed bead flow cytometry | actives 0.38% (n = 220,000) | bead-based flow cytometry RGS16-Galphao binding, fluorescence; actives lie on both sides | AID 1441, 2008 | binding response (% of control), % at 10 µM | Regulator of G-protein signaling 16 (Homo sapiens) + Guanine nucleotide-binding protein …;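 active = below 25% or above 175%, edge rows of some plates excepted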;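 also: Galphao activated by GDP with aluminum fluoride before binding; 100% = wells without compound and 0% = beads without RGS; some results beyond the cut were filed as inactive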
# Insulin prom inh cell count: further read-out of Insulin prom inh, marked with its call; normalized cell count, %; measured here: cell count, toxicity; reference of the scale not given here;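 cells exposed to compound for 48 h; stained nuclei by imaging scaled within each plate; lower means fewer cells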
# HSV replic up primary fold: second read-out of HSV replic up, no call of its own (marks repeat the call); fold increase; compound at 10 µM; measured here: primary screen fold increase 10 uM; tested in PC3 cells;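 GFP signal in the first replicate; 1 = infected wells without compound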
# The depositor's hits bear a star; i = inactive; ? = inconclusive; . = no result given.
SMILES,Insulin prom inh,Insulin prom inh cell count,GALR2 agonist,HSV replic up,HSV replic up primary fold,PKD1 inh,RGS16-Gao
Cc1cc(Br)ccc1NC(=S)Nc1cccc([N+](=O)[O-])c1,.,.,0.0,i,0.96,-4,99
CC1CC(C)CN(S(=O)(=O)c2cccc(C(=O)N3C(=O)c4cccc(N)c4C3=O)c2)C1 (centres undefined),-13,140,0.0,i,0.99,-5,122
CCNC(=O)Nc1ccc(OC)cc1OC,.,.,.,i,0.86,-5,105
COC(=O)c1cn(C(=O)c2cc(C)cc(C)c2)c2ccccc12,.,.,.,i,0.95,10,36
OC(CN1CCN(c2ccccc2)CC1)c1c[nH]c2ccccc12 (centres undefined),18,96,-1.3,i,1,-9,111
O=C(NC(=S)N1CCc2ccccc21)c1ccccc1,.,.,0.1,i,1.1,1,240
COc1ccc(/C=N/n2cnnc2)cc1COc1ccccn1,9,110,-0.8,i,1.1,-11,101
O=C(NCC(c1ccco1)N1CCCC1)c1ccccc1F (centres undefined),-35,70,-0.9,i,0.8,-7,133
COc1ccc(-c2cc(C(=O)N/N=C/c3sccc3C)c3ccccc3n2)c(OC)c1,16,107,-0.4,i,0.6,-5,102
Cc1ccccc1NC(=S)N(Cc1cccnc1)Cc1ccco1,-80,98,-1.9,i,0.92,3,99
Cc1cc(C)n2[nH]c(=O)c(N=Nc3cccc(Cl)c3)c2n1,37,81,-1.2,?,.,1,101
CC1(C)Cc2cccc(Oc3ccc(S(=O)(=O)N4CCCC4)cn3)c2O1,-33,187,.,i,0.91,-3,101
CCOc1cc(/C=N/NC(=O)CN2CCCCC2)ccc1OCc1ccccc1,17,95,-1.9,i,0.87,-3,93
O=C(OCc1nnc(-c2ccccc2)o1)c1ccc2c(c1)OCO2,.,.,-2.6,i,0.76,11,107
CCCCSc1nnc(-c2cc(Br)ccc2N)c(=O)[nH]1,11,114,-2.1,i,0.88,-14,95
CCOC(=O)c1ccc(Nc2nc(=O)c3cccnc3s2)cc1,.,.,0.1,i,0.71,4,100
CC(=O)Nc1cc(C(=O)N2CCc3ccccc3C2)ccc1Sc1ccc(Cl)cc1,-23,91,0.1,i,0.89,0,102
CC(Oc1ccc(-c2ccccc2)c(F)c1)c1ccn(S(=O)(=O)c2ccc(F)cc2)n1 (centres undefined),-42,67,1.6,i,0.93,8,26
CCNc1nc(NC(C)(C)C)nc(N(C#N)CC)n1,29,135,-2.3,i,0.88,-8,102
C=CCSc1nc2ccsc2c(=O)n1-c1ccccc1,.,.,.,i,0.79,-4,101

# Part of the list above in a different format.
compound	Insulin prom inh	Insulin prom inh cell count	GALR2 agonist	HSV replic up	HSV replic up primary fold	PKD1 inh	RGS16-Gao
CC(Oc1ccc(-c2ccccc2)c(F)c1)c1ccn(S(=O)(=O)c2ccc(F)cc2)n1 (centres undefined)	-42	67	1.6	i	0.93	8	26
CC1(C)Cc2cccc(Oc3ccc(S(=O)(=O)N4CCCC4)cn3)c2O1	-33	187	.	i	0.91	-3	101
O=C(OCc1nnc(-c2ccccc2)o1)c1ccc2c(c1)OCO2	.	.	-2.6	i	0.76	11	107
CC(=O)Nc1cc(C(=O)N2CCc3ccccc3C2)ccc1Sc1ccc(Cl)cc1	-23	91	0.1	i	0.89	0	102
CCCCSc1nnc(-c2cc(Br)ccc2N)c(=O)[nH]1	11	114	-2.1	i	0.88	-14	95
CCOc1cc(/C=N/NC(=O)CN2CCCCC2)ccc1OCc1ccccc1	17	95	-1.9	i	0.87	-3	93

# The results go on.
SMILES,Insulin prom inh,Insulin prom inh cell count,GALR2 agonist,HSV replic up,HSV replic up primary fold,PKD1 inh,RGS16-Gao
O=S(=O)(c1ccc2oc3ccccc3c2c1)N1CCCC1,-23,93,-1.1,i,0.92,7,106
COc1ccc(CC(CC(=O)O)C(=O)Nc2ccccc2)cc1 (centres undefined),.,.,-1.2,i,1.1,2,98
CCCCc1nc(SCCOC)c2c(=O)n(C)c(=O)n(C)c2n1,.,.,.,i,0.9,-6,92
CCn1c(CNC(=O)c2ccc(OC)c(OC)c2)nnc1SCC(=O)Nc1ccccc1,-106,135,-0.6,i,0.89,12,99
O=C(O)c1sc2cc(C(F)(F)F)cnc2c1-c1ccccc1,25,78,-2.6,i,0.91,-11,91
Cc1cc(N2CCOCC2)n2cc(-c3ccccc3)nc2n1,-9,94,.,i,0.97,-5,103
CCN(CC)CCCNC(=O)c1ccc(N2CCCCC2)c(NS(=O)(=O)c2ccc(C)cc2)c1,-64,59,.,i,0.79,-3,94
Cc1ccc(NC(=O)c2c(C)nc3sc(C(=O)NC4CCCC4)c(N)c3c2-c2ccco2)c(C)c1,29,46,-1.3,i,1,6,106
COc1ccc(C2CC(=O)C3=C(C2)Nc2ncnn2C3c2ccccc2)cc1 (centres undefined),-31,112,-3.9,i,0.94,-7,91
Cc1ccn2c(/C=N/OCc3ccc(F)cc3)c(-c3ccc(Cl)cc3)nc2c1,42,77,-0.8,i,0.98,-7,101

# Part of the list above in order of SMILES length, low to high.
SMILES,Insulin prom inh,Insulin prom inh cell count,GALR2 agonist,HSV replic up,HSV replic up primary fold,PKD1 inh,RGS16-Gao
Cc1cc(N2CCOCC2)n2cc(-c3ccccc3)nc2n1,-9,94,.,i,0.97,-5,103
COc1ccc(CC(CC(=O)O)C(=O)Nc2ccccc2)cc1 (centres undefined),.,.,-1.2,i,1.1,2,98
Cc1ccn2c(/C=N/OCc3ccc(F)cc3)c(-c3ccc(Cl)cc3)nc2c1,42,77,-0.8,i,0.98,-7,101

# The listing continues.
SMILES,Insulin prom inh,Insulin prom inh cell count,GALR2 agonist,HSV replic up,HSV replic up primary fold,PKD1 inh,RGS16-Gao
O=C1COc2ccc(-c3csc(=Nc4ccc(OC(F)F)cc4)n3CC3CCCO3)cc2N1 (centres undefined),-11,171,-0.8,i,0.92,-1,106
Cc1[nH]c2ccccc2c1/C=N/NC(=O)CCC(=O)Nc1ccccc1,.,.,.,i,1,-7,110
COC(=O)c1sc2ccc(C)cc2c1C(=O)OC,50,158,-1.1,i,0.94,-1,112
COc1cccc(NC(=S)N(Cc2ccc(Cl)cc2)Cc2ccc(C(=O)O)cc2)c1,.,.,.,i,1.1,-6,104
O=C(Nc1ccccc1Cl)N1CCN(Cc2ccc3c(c2)OCO3)CC1,-19,122,.,i,0.98,-5,102
O=C(/C=C/c1ccccc1Cl)Nc1ccc(S(=O)(=O)Nc2ncccn2)cc1,20,124,.,i,0.97,2,103
c1ccc(-c2csc3ncnc(NCc4ccccn4)c23)cc1,.,.,.,i,0.83,.,147
Cn1nc(C(=O)OCC(=O)NC2CCS(=O)(=O)C2)c2ccccc2c1=O (centres undefined),.,.,.,i,1,-4,95
Cc1cc(C)cc(N(CC(=O)NC2CCCC2)S(=O)(=O)c2c(C)[nH]c(=O)[nH]c2=O)c1,.,.,.,i,0.96,.,100
Cc1cccc(N2CCN(C(=O)CSCc3c(C)noc3C)CC2)c1C,-11,122,0.0,.,.,-9,98

# The list goes on; the last 2 above are carried over.
SMILES,Insulin prom inh,Insulin prom inh cell count,GALR2 agonist,HSV replic up,HSV replic up primary fold,PKD1 inh,RGS16-Gao
Cc1cc(C)cc(N(CC(=O)NC2CCCC2)S(=O)(=O)c2c(C)[nH]c(=O)[nH]c2=O)c1,.,.,.,i,0.96,.,100
Cc1cccc(N2CCN(C(=O)CSCc3c(C)noc3C)CC2)c1C,-11,122,0.0,.,.,-9,98
COc1ccc(N=C2NC(=O)CS2)c([N+](=O)[O-])c1,.,.,.,i,0.99,-2,97
Cc1ccc(C)c(NC(=O)Cn2cnc3c(oc4ccccc43)c2=O)c1,.,.,.,i,0.91,6,100
Cn1c(=O)cc(OCC(=O)NCCCN2CCN(Cc3ccccc3)CC2)c2ccccc21,.,.,-0.8,i,1.1,-17,102
CCN(c1ccc(OCC(=O)OCC(=O)Nc2ccc(F)c(F)c2F)cc1)S(=O)(=O)c1ccccc1,-3,57,-1.1,i,1.1,-4,35
COc1ccc(C)c2sc(=NC(=O)C(C)C)n(C)c12,.,.,-1.6,i,0.88,7,104
CC(=O)Nc1ccc(NC(=O)C(C)n2nc(C)c([N+](=O)[O-])c2C)cc1 (centres undefined),16,98,.,i,1.1,-10,101
COc1ccc(-c2nc(CS(=O)CC(=O)NCc3cccnc3)c(C)o2)cc1OC (centres undefined),.,.,-3.4,i,0.85,-6,104
CCN1CCN(C(=O)CN(C)S(=O)(=O)c2ccc3ccccc3c2)CC1,.,.,.,i,0.99,-5,89
CCOC(=O)C1=C(c2cccc(Oc3ccccc3)c2)NC(=S)NC1C (centres undefined),24,83,-1.1,i,1,-3,89
Cc1oc(-c2cccc(C(F)(F)F)c2)nc1CN1CCC[C@H]1CO,.,.,.,i,0.95,-6,103
COc1ccccc1C(CC(=O)c1ccccc1)CC(=O)c1ccccc1,13,101,.,i,0.94,-4,106
Cc1nc(CNC(=O)CC2C(=O)NCCN2Cc2ccoc2)nc2c1CCCC2 (centres undefined),.,.,.,i,0.94,.,99
CCN(CC)S(=O)(=O)c1ccc2oc(C(=O)O)c(C)c2c1,0,100,-0.3,i,1,-3,102
O=C(CCn1c(SCC(=O)c2ccccc2)nc2ccccc2c1=O)NCc1ccc(F)cc1,-6,83,-2.0,i,0.87,4,90
CCOC(=O)CSc1nc2ccc(N)cc2s1,48,78,-2.5,i,1,10,99
CCOC(=O)c1cc(C(=O)c2cc(Cl)ccc2O)coc1=N,-77,100,.,i,0.94,7,102
CCOC(=O)CCc1cccc2c1CCC2=O,43,55,-3.0,i,0.94,-3,93
COc1cc(/C=N/NC(=O)C2c3ccccc3Oc3ccccc32)ccc1O,14,58,-0.3,i,1.1,-10,99
COCCNc1nc2c(S(=O)(=O)c3cc(C)ccc3C)nnn2c2ccccc12,-71,66,.,i,0.95,-7,102
CCOC(=O)c1cc2occc2n1CC(=O)N1CCCc2ccccc21,.,.,-0.2,i,1.1,-15,99
CS(=O)(=O)N1CCN(c2ccc([N+](=O)[O-])c(NCc3ccc(Cl)cc3)c2)CC1,-79,99,0.2,i,0.92,0,104
O=C(O)CCC(=O)c1c[nH]c2ccccc12,-29,144,-3.2,i,0.95,-3,106
CC(=O)Nc1ccc(CNC(=O)C[N+]2(C)CCOCC2)cc1,.,.,.,i,1,6,102
COc1ccccc1NC(=O)C1=C(C)NC2=C(C(=O)CCC2)C1c1ccc2c(c1)OCO2 (centres undefined),.,.,0.9,i,0.82,-15,96
COC(=O)c1c(/N=C/NOCc2ccc(Cl)cc2)sc2c1CCN(c1ncc(C(F)(F)F)cc1Cl)C2,33,80,1.4,i,1,-2,105
CCC(C)Sc1nc2c(c(=O)[nH]c(=O)n2C)n1C (centres undefined),-8,34,-0.4,i,0.98,-1,100
COc1ccc(OC)c(/C=C/C(=O)N(C)CC(=O)Nc2cc(C)ccc2C)c1,.,.,-0.8,i,1.1,-7,105
Cc1ccc(C)c(Cn2c(=O)n(CCCC(=O)NCc3ccco3)c(=O)c3sccc32)c1,-10,153,-2.3,i,0.58,-3,94
O=C(O)c1cccc(-n2cccc2C=C2C(=O)c3ccccc3C2=O)c1,.,.,.,i,1.1,1,99
O=C(NCc1ccc2c(c1)OCO2)c1ccc(-n2cnnn2)cc1,.,.,-3.2,i,1,-19,89
Cc1ccc(-n2c(C)cc(C(=O)CN3C(=O)C(=O)N(C4CCCC4)C3=O)c2C)cc1,38,111,.,i,1.1,-4,116
CN(CCc1ccccn1)C(=O)CCC1CCCN(C(=O)c2cscn2)C1 (centres undefined),.,.,.,i,0.95,-10,102
CCOc1ccccc1NC(=O)N1CCC(C(=O)c2ccc(F)cc2)CC1,11,118,-0.6,i,0.98,-2,103
COc1ccc(C(CNC(=O)c2ccc(OCC3CCCO3)cc2)N2CCOCC2)cc1 (centres undefined),28,96,2.3,i,0.76,-2,95
Cc1nc2ccccc2c(=O)n1NC(=O)c1cc(Br)ccc1Cl,.,.,.,i,1.1,.,106
COCCNC(=O)CC(=O)N/N=C/c1cccc(C(=O)OC)c1,-79,88,.,i,1,-1,106
CC(=O)c1ccc(NC(=O)Oc2ccccc2)cc1,.,.,-0.9,i,1,-1,102

# The order is random; about 1.3% have a hit in one of these screens.
